Source: PubChem BioAssay
VDR inh = inhibitors of human vitamin D receptor; VDR-SRC2-3 peptide fluorescence polarization, 2 h; Potency, µM, for the others: max response, negative = inhibition, actives largely listed as inhibitors; 0.93% of 400,000 active; active means well fitted inhibition curve with a large enough effect; inconclusive means small, poorly fitted or top-dose-only effect, or another doubt; inactive means no such curve, though single readings can be large or run the other way; further: series mostly up to about 120 µM
Target sequence (P11473 whole entry, looked up): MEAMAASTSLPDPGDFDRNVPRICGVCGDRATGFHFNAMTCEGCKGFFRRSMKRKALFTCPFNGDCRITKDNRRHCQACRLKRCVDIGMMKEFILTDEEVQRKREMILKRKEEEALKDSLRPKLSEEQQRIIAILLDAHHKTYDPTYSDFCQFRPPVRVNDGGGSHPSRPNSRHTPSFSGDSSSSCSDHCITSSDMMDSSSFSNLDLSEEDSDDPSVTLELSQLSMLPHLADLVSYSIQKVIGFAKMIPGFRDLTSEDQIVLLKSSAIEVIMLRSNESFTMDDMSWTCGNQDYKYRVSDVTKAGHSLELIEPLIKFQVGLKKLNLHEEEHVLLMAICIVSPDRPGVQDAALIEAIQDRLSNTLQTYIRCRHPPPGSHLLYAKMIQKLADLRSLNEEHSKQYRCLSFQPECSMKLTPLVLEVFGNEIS
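Two reagent solutions held at 4 deg C in the dark were dispensed, compounds pinned at 23 nl, and the mixture incubated 2 h at room temperature. Read-out: fluorescence polarization of VDR–SRC2-3 peptide binding.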
* hit, by the source's call; ? = inconclusive; & = joins results of further samples; [ ] = another dose, or the depositor's remark. On the % scale 0 is the no-effect control and ±100 the full control effect; potency means the concentration at half of the fitted maximal effect. A portion of the library; the hit share may differ from the screen's.

SMILES	VDR inh
CCCc1c(C(=O)N/N=C/C(C)=C/c2ccco2)nnn1-c1nonc1N	-6%
Cc1ccc(NC(=O)Cn2ncc3ccccc32)c(Cl)c1	-6%
O=C(CC1(O)C(=O)N(Cc2ccc3c(c2)OCO3)c2ccccc21)c1ccccc1 (stereo unspecified)	1%
Cc1cccc(-c2n[nH]c(=S)n2/N=C/C=C/c2ccco2)c1	?
CCN(CC)C(=S)S	?
CCn1c2ccccc2c2cc([N+](=O)[O-])ccc21	-11%
O=C(O)C1CCCN1C(=O)Oc1ccccc1 (stereo unspecified)	5%
CCOc1ccc(-c2nonc2NC(=O)c2ccco2)cc1	-15%&-4%
O=C(CN1C(=O)NC2(CCCCC2)C1=O)N1CCN(S(=O)(=O)c2ccc(F)cc2)CC1	-21%
Nc1ccc2nc(-c3cccs3)[nH]c2c1	-4%
CC(C)(C)C(=O)Nc1c2c(nc3c1CCC3)CCCC2	-8%
O=C(Cn1cnc(S(=O)(=O)N2CCCC2)c1)Nc1ccccc1	-24%&9%
O=C1c2ccccc2C(=O)N1CCCCSc1nnc2c(Cl)cc(Cl)cn12	10%
COc1ccccc1C(=O)Nc1ccc(Oc2ncnc3sc(-c4ccccc4)cc23)cc1	18%
Cc1ccc(NC2CC(=O)N(c3ccc(C)cc3)C2=O)cc1 (stereo unspecified)	10%
CCOCc1c(C(=O)OCC(=O)Nc2ccc(C)c(S(=O)(=O)N(C)C)c2)oc2ccccc12	-13%
CCOCCCNS(=O)(=O)c1ccc2c(c1)OCCO2	-1%
Cc1cccn2c(=O)nc(SCC(=O)N3CCCCC3)nc12	0%
CCN1C(=O)/C(=C\c2ccncc2)SC1=S	?
O=S(=O)(c1cnc(Cl)c(Br)c1)N1CCN(c2ncccn2)CC1	-20%
COc1cccc(CN(C)CC2CCCN(CCc3ccccc3C)C2)c1 (stereo unspecified)	-5%
O=C(NC(=S)NCc1ccc(Cl)cc1)c1ccco1	-2%
Cc1ccc(CNC(=O)c2ccc(CS(=O)(=O)Cc3ccc(F)cc3)o2)cc1	8%
O=C1OC(CO)C(O)C(O)C1O (stereo unspecified)	-12%
O=C(NCc1ccccc1)C(c1ccco1)N(C(=O)c1ccccn1)c1ccc(F)cc1 (stereo unspecified)	-9%

(listing goes on)
SMILES	VDR inh
CC(=O)Nc1ccc(Nc2c(CCC(C)C)c(C)c(C#N)c3nc4ccccc4n23)cc1	4%
COc1ccc(-n2nc(C)c3sc(C)nc3c2=O)cc1	-1%
O=[N+]([O-])c1ccccc1CN1CCN(Cc2ccc3ccccc3c2)CC1	-16%
O=C(c1ccc2c3n(nc2c1)-c1ccccc1CO3)N1CCOCC1	-20%
Cc1ccc(C(=O)N/C(=C\c2ccco2)C(=O)NCCCN2CCOCC2)cc1C	0%
OC(CN1CCOCC1)C12CC3CC(CC(C3)C1)C2 (stereo unspecified)	9%
COc1ccc(C(C(=O)NC2CCCC2)N(C(=O)c2ccoc2C)c2ccc(C)c(C)c2)cc1 (stereo unspecified)	2%
S=C(NCC1CCCO1)Nc1ccc(Cl)c(Cl)c1 (stereo unspecified)	?
CCOc1ccc(OCCCC(=O)N2CCN(S(=O)(=O)c3ccccc3C#N)CC2)cc1	-10%
CC(=O)OCC(=O)Nc1ccccc1C	-6%
Cc1ccc(Cl)cc1NC(=S)NN	-5%
c1ccc2c(c1)cnc1ccccc12	-5%&12%
Cc1ccsc1CNS(=O)(=O)c1ccc(F)cc1	-28%
COc1ccc(S(=O)(=O)NCCc2sc(-c3cccnc3)nc2C)cc1OC	6%
CCOC(=O)c1sc(NC(=O)CCN2CCCCCC2)c(C(=O)OCC)c1C	?
O=C(NCc1ccc(F)cc1)C(c1ccco1)N(C(=O)c1csnn1)c1ccccc1 (stereo unspecified)	15%
O=C(c1ccc(Cn2c(=O)[nH]c3ccccc3c2=O)cc1)N1CCN(c2ccc(F)cc2)CC1	7%
COc1cccc(NC(=O)COC(=O)c2nc(Cl)ccc2Cl)c1	-14%
Cc1nc(SCc2ccccc2)c2oc3ccccc3c2n1	9%
CCO[C@@H]1OC(C(=O)N2CCN(Cc3ccccc3)CC2)=C[C@H](c2csc3ccccc23)[C@H]1CCCO	5%
O=C(Nc1nccs1)NC1CCCCC1	8%
COc1ccc2c(c1)c(CC(=O)Nc1ccc(C)cc1)c(C)n2C(=O)c1ccc(Cl)cc1	-6%
Cc1c(Cl)c([N+](=O)[O-])nn1Cc1ccc(C(=O)Nc2ccc(Cl)cn2)o1	-8%
COc1ccc(-c2noc(CSc3nnc(-c4ccncc4)n3-c3ccccc3)n2)cc1	13%
CC(=O)OCC(NC(=O)C(CCCCNC(=O)OCc1ccccc1)NC(=O)OC(C)(C)C)C1OC(n2ccc(=O)[nH]c2=O)C(OC(C)=O)C1OC(C)=O (stereo unspecified)	5%

Additional records:
SMILES	VDR inh
COC(=O)c1c(-c2ccc(N(C)C)cc2)sc2ccc(OC)cc12	7%
O=C1CCCCCN1Cc1nnc(SCc2nc3ccccc3s2)n1-c1ccccn1	0%
CN(c1ccc(F)cc1)S(=O)(=O)c1ccc(Cl)c(C(=O)Nc2ccncc2)c1	14%
Cc1ccc(CNC(=O)Cn2c3ncccc3c(=O)n2-c2ccc(C)cc2)cc1	-3%
CCC(COC(=O)Nc1cccc(C)c1C)NC(=O)OCC(C)C (stereo unspecified)	-19%
O=C(CN1C(=O)NC2(CCCCC2)C1=O)N1CCN(S(=O)(=O)c2cccc(F)c2)CC1	2%
CC(C)(C)C1CCc2oc3ccc(NS(=O)(=O)c4cc(Cl)ccc4Cl)cc3c2C1 (stereo unspecified)	-6%
CC1(N=Cc2cc(Cl)ccc2O)COP(=O)(Nc2ccccc2)OC1 (stereo unspecified)	-15%
Cc1ccccc1C(=O)Nc1c2c(nn1C(C)(C)C)CS(=O)(=O)C2	-18%
CC(Cl)C(=O)c1ccc2c(c1)CCN2C(=O)C1CC1 (stereo unspecified)	29%
Cc1c(NC(=O)c2ccco2)cccc1-c1nc2cccnc2s1	-12%
COC(=O)[C@]1(Cc2ccccc2)N[C@H](CN(C)S(=O)(=O)c2ccc(-c3ccccc3)cc2)[C@@H]2C(=O)N(Cc3ccccc3)C(=O)[C@@H]21	-10%
CCN(CC)CCOc1ncnc2c1oc1ccccc12	-11%
Cc1nc(C)c(C(=O)Nc2cccc(C)c2C)o1	7%
C[C@@H](Oc1ccccc1)c1nnn(Cc2ccccc2)c1-c1c([C@@H](C)Oc2ccccc2)nnn1Cc1ccccc1	-2%
CN(C)CC#CCC(O)(c1ccccc1)C1CCCCC1 (stereo unspecified)	7%
CN1C(=O)c2ccccc2Sc2ccc(NC(=O)N3CCN(c4ccccc4)CC3)cc21	5%
Cc1ccc(-c2c(C(=O)NNC(=S)NCC3CCCO3)csc2C)cc1 (stereo unspecified)	-6%
CCN1CCN(C(=O)/C=C/c2c(F)cccc2Cl)CC1	7%
Cc1c(NC(=O)c2cccc(NC(=O)COc3cccc(Br)c3)c2)c(=O)n(-c2ccccc2)n1C	-10%
COc1ccc(NC(=O)COC(=O)CCCN2C(=O)c3ccccc3C2=O)cc1Cl	-10%
Cc1ccc(C2(C)NC(=O)N(CC(=O)NCCN3C(=O)S/C(=C\c4cccnc4)C3=O)C2=O)cc1 (stereo unspecified)	10%
CC1CCCCC1NC(=O)Cn1c(CN2CCCCC2)nc2ccccc2c1=O (stereo unspecified)	20%
CCc1c(C)sc(NC(=O)c2ccco2)c1C(=O)N1CCOCC1	-1%
OCCN1CCN(CC/C=C2/c3ccccc3Sc3ccc(Cl)cc32)CC1	-2%

Continued (2 carried over from the part before).
SMILES	VDR inh
CCc1c(C)sc(NC(=O)c2ccco2)c1C(=O)N1CCOCC1	-1%
OCCN1CCN(CC/C=C2/c3ccccc3Sc3ccc(Cl)cc32)CC1	-2%
COC(C(=O)N/N=C(\C)CC(=O)Nc1ccc(Cl)cc1C)c1ccccc1 (stereo unspecified)	-11%
COc1ccc(C2C(CC(=O)O)=C(Nc3ccccc3)C(=O)N2c2ccccc2)cc1 (stereo unspecified)	-8%
CC(=O)Nc1ccc(NC(=O)COc2cc(C)cc3oc(=O)cc(C)c23)cc1	104%[activator]
CCOc1ccc(CCNC(=O)C2CC(=O)N(Cc3ccc(C)cc3)C2)cc1OCC (stereo unspecified)	7%
Cc1ccc(NC(=O)CSc2nnc(CCC(=O)O)c(=O)[nH]2)cc1	8%
C/C(=N\NC(=O)C1(C)CC1(Br)Br)c1cccc(NC(=O)c2ccc(C)o2)c1 (stereo unspecified)	5%
O=C(CSc1nc2ccsc2c(=O)n1-c1ccc(Br)cc1)NCc1ccc(Cl)cc1	8%
O=C(c1cc(-c2ccc(Br)cc2)on1)N1CCCC1	16%
CC(C)(C)c1nnc(N/N=C/c2ccccc2)n(N)c1=O	-8%
CN(CC(=O)Nc1c(Cl)cccc1Cl)C(=O)Cn1[nH]c(=O)c2ccccc2c1=O	-5%
CCn1nnnc1NCc1cccn1C	-5%
CC(NC(=O)COc1cccnc1[N+](=O)[O-])c1ccc(F)cc1 (stereo unspecified)	8%
CS(=O)(=O)Nc1ccc(-c2cc(/C=C3\SC(N)=NC3=O)c[nH]c2=O)cc1	0%
Cc1ccc(SCc2nnc(N)s2)cc1	-1%
COC(=O)c1cccc(NC(=O)CCNC(=O)c2ccco2)c1	-7%
COc1ccc(NS(=O)(=O)c2cc3c4c(c2)CCN4C(=O)CC3)c(OC)c1	-2%
CC(=O)c1ccccc1NC(=O)COC(=O)c1ccccc1NC(=O)c1ccccc1	-5%
COc1ccc(CCNC(=O)C(=O)NCC2OCCN2S(=O)(=O)c2ccc(OC)cc2)cc1 (stereo unspecified)	10%
COC(=O)c1ccccc1NC(=O)c1cc(CN2CCCC2)on1	12%
CCC(Cc1ccccc1)NC(=O)CCS(=O)(=O)c1cc2c(cc1Cl)NC(=O)CO2 (stereo unspecified)	-1%
CC(C)(C)S(=O)(=O)c1cnc2c(-c3ccc(Cl)cc3)cnn2c1N	-2%
CCc1cccc(CC)c1NC(=O)c1ccccc1	-14%
CC(=O)c1ccc(S(=O)(=O)Nc2ccc(N3CCOCC3)cc2)cc1	2%
CCN1CCN(C(c2ccc(OC)c(OC)c2)c2nnnn2C(C)(C)C)CC1 (stereo unspecified)	-7%
N#CCCN(C(=O)CSc1nc(-c2ccccc2)cn1N)c1ccc(F)cc1	7%

4 records picked at random from the list so far, as already listed:
SMILES	VDR inh
Cc1c(Cl)c([N+](=O)[O-])nn1Cc1ccc(C(=O)Nc2ccc(Cl)cn2)o1	-8%
Cc1nc(SCc2ccccc2)c2oc3ccccc3c2n1	9%
O=C(NCc1ccc(F)cc1)C(c1ccco1)N(C(=O)c1csnn1)c1ccccc1 (stereo unspecified)	15%
CCO[C@@H]1OC(C(=O)N2CCN(Cc3ccccc3)CC2)=C[C@H](c2csc3ccccc23)[C@H]1CCCO	5%

Next part:
SMILES	VDR inh
COC(=O)Nc1nc2c(C)cccc2s1	8%
CC1CCCCC1NC(=O)CN1C(=O)COc2ccccc21 (stereo unspecified)	15%
COc1ccc(OCC(=O)Nc2ccc(-c3nc4cc(Cl)ccc4o3)cc2)cc1	3%
Cc1ccc2c(c1)-c1c(cnn1CC(=O)N1CCN(c3cccc(C(F)(F)F)c3)CC1)CO2	21%
CCNc1ccc(C(=O)NN=C2CCCC2)cc1[N+](=O)[O-]	-14%
Cc1ccc2c(c1)c1c(c(=O)n(-c3cccc(Cl)c3)c(=O)n1CC(=O)NCC1CCCO1)n2C (stereo unspecified)	8%
COc1ccccc1CNC(=O)CCc1c(C)c2cc3c(C)coc3cc2oc1=O	4%
Cc1[nH]n(-c2ccccc2)c(=O)c1/C=N\NC(=O)C1COc2ccccc2O1 (stereo unspecified)	1%
CCOC(=O)C1CCN(C(=O)c2ccc3c(SCC(=O)O)c4c(nc3c2)CCCC4)CC1	-15%
S=c1[nH]nc(-c2ccc3ccccc3n2)n1-c1ccc2c(c1)OCCO2	-1%
NCCc1nc2cccnc2n1-c1ccccc1	1%
CCC(C(=O)OC)(C(=O)OC)c1ccc([N+](=O)[O-])cc1	11%
COCCn1nnnc1C(C(C)C)N(Cc1ccccc1)Cc1cc2cc(OC)ccc2[nH]c1=O (stereo unspecified)	-22%
O=C(NC1CCCc2c1cnn2-c1cc(F)cc(F)c1)c1ccccn1 (stereo unspecified)	7%
COc1ccc(OC)c(NC(=O)CSc2nc3c(c(=O)n(C)c(=O)n3C)n2C)c1	10%
Cc1ccc(-c2n[nH]c(=S)n2-c2ccccc2)cc1	6%
COc1ccc2c(C)cc(SCC(=O)Nc3ccc(Cl)cn3)nc2c1	2%
O=C(NCCO)/C(=C\c1ccco1)NC(=O)c1ccco1	-12%
Cc1nn(-c2ccccc2)c2sc(C(=O)N3CCOCC3)cc12	11%
CC(=O)c1ccc(NC(=O)Cn2nc(C(F)(F)F)c3c2CCC3)cc1	-12%
CCc1nnc(NC(=O)c2sc3nc4c(cc3c2N)CCCCC4)s1	5%
CC[C@@H](C)[C@@H](C(=O)N1CCN(C(=O)OC(C)(C)C)CC1)n1cc(CCC(=O)O)nn1	-1%
COc1ccc(C(=O)NCc2cn3ccc(C)cc3n2)cc1	16%

Seven of the compounds above, bar-delimited.
canonical_smiles | VDR inh
COc1ccc(OC)c(NC(=O)CSc2nc3c(c(=O)n(C)c(=O)n3C)n2C)c1 | 10%
COc1ccc(C(=O)NCc2cn3ccc(C)cc3n2)cc1 | 16%
Cc1nn(-c2ccccc2)c2sc(C(=O)N3CCOCC3)cc12 | 11%
Cc1ccc(-c2n[nH]c(=S)n2-c2ccccc2)cc1 | 6%
CC1CCCCC1NC(=O)CN1C(=O)COc2ccccc21 (stereo unspecified) | 15%
CC[C@@H](C)[C@@H](C(=O)N1CCN(C(=O)OC(C)(C)C)CC1)n1cc(CCC(=O)O)nn1 | -1%
COCCn1nnnc1C(C(C)C)N(Cc1ccccc1)Cc1cc2cc(OC)ccc2[nH]c1=O (stereo unspecified) | -22%
